Screening data from PubChem.
CBX7 AlphaScr – inhibitors of human CBX7 binding to H3K27me3 peptide. O95931. AlphaScreen His6-CBX7 / biotin-H3K27me3 peptide binding; active compounds read low. normalised signal (fraction of DMSO) (test concentration not listed). hit rate 1.1% among 66,000. AID 1224903; in the data active = normalised signal below about 0.5;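 also: 100 nL library stock added to about 20 µL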
Target sequence (O95931 whole entry, looked up): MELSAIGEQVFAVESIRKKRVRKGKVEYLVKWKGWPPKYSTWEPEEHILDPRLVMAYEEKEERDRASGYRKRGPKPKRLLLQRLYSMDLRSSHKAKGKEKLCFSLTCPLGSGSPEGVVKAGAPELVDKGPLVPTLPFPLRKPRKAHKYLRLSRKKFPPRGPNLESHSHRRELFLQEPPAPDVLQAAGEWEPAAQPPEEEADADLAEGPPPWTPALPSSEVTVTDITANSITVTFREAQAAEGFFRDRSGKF
CBX7 AlphaScr z-score – recorded beside CBX7 AlphaScr, whose call it bears; z-score; measured here: z-score of CBX7 signal; some inactives read as strong as hits; reference of the scale not given here;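 same signal on another scale; lower means less binding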
An asterisk follows results filed as active.

Values in the order: CBX7 AlphaScr	CBX7 AlphaScr z-score
CCOC(=O)c1cccc(NC(=O)c2cc3sccc3n2Cc2ccc(F)cc2)c1
 : 0.99	-0.28
Cc1cc(C)c(NC(=O)CN2C(=O)CSc3ncccc32)c(C)c1
 : 1	0.033
CCc1c(C)nc2cc(-c3cccc(Br)c3)[nH]n2c1=O
 : 1	0.11
Fc1cccc(CSc2ncnc3ccccc23)c1
 : 1.1	4.1
COc1ccc(-c2cc3nc(C)c(CCC(=O)Nc4cccnc4)c(C)n3n2)c(OC)c1
 : 1.1	0.76
COc1ccc(N2C(=O)c3ccc(C(=O)O)cc3C2=O)cc1NC(=O)c1ccccc1
 : 1.1	2.8
O=C(NCc1cccnc1)C1CC(=O)N(C2CCCCC2)C1 (centres undefined)
 : 0.92	-1.9
Cc1c(C(=O)NC(C)c2ccccc2)oc2ccc(S(=O)(=O)N3CC(C)CC(C)C3)cc12 (centres undefined)
 : 0.94	-0.64
CCOc1ccc(-n2cc(-c3ccccc3)c3c(NCCCN4CCCC4=O)ncnc32)cc1
 : 0.87	-3.8
CCc1ccccc1N(C)C(=O)Cn1nc(Cc2ccncc2)c2ccccc2c1=O
 : 1	1.1
CCOc1cccc(C(=O)N(Cc2cccc(Cl)c2)C2CCS(=O)(=O)C2)c1 (centres undefined)
 : 0.84	-0.16
Cc1ccc(OCc2nc(C#N)c(N3CCC(C)CC3)o2)cc1
 : 0.52	-3
CCCN(CCC)CCCNC(=O)c1cc(=O)[nH]c2ccc(S(=O)(=O)N3CCC(C)CC3)cc12
 : 1	0.22
CC1CCN(S(=O)(=O)c2ccc3c(c2)N(CC(=O)Nc2ccc(Cl)cc2)C(=O)CO3)CC1
 : 0.83	-2.6
Cc1ccc(N2CC(=O)Nc3ccccc3S2(=O)=O)cc1C
 : 1.1	0.61
CCN1C(=O)c2ccccc2Sc2ccc(C(=O)NCc3ccccc3)cc21
 : 0.68	-6.4
COc1ccc(OCCSc2nc3ccc(Br)cc3[nH]2)cc1
 : 0.95	-0.33
CCOc1ccc2nc(N3CCC(C(=O)N4CCN(c5ccc(Cl)cc5)CC4)CC3)sc2c1
 : 1	0.041
COCCNc1nc(-c2ccc(Cl)cc2)nc2ccccc12
 : 0.96	-0.39
Clc1ccc(-c2cn3ccsc3n2)cc1
 : 0.87	-1.5
COc1cccc(NC(=O)COc2ccc(N3CC(C(=O)NCCc4ccccc4)CC3=O)cc2)c1 (centres undefined)
 : 1.1	2.5
O=S(=O)(NCCCCCc1nc2ccccc2[nH]1)c1ccc(Cl)c(Cl)c1
 : 0.95	-1.3
O=C(NCCCn1ccnc1)c1ccc(C#CC2(O)CCCCC2)cc1
 : 0.97	-0.43
O=C(NCCCN1CCN(c2cccc(Cl)c2)CC1)C1CCN(S(=O)(=O)c2cnc[nH]2)CC1
 : 0.95	-0.57
CCCOc1ccc(C2C(=O)N(C3CCC(C)CC3)CC(=O)N2Cc2ccccc2Cl)cc1OC (centres undefined)
 : 0.84	-3.5
CCOc1ccc(NC(=O)c2cnc(Nc3ccccc3OC)c3ccccc23)cc1
 : 1	-0.028
Cc1ccc(Cn2c(C3CC(=O)N(c4ccccc4)C3)nc3ccccc32)cc1 (centres undefined)
 : 0.88	-1.8
CCS(=O)(=O)N1CCCC(C(=O)NC(C)C)C1 (centres undefined)
 : 1	0.1
Cc1cccc(NC(=O)CCC2=NS(=O)(=O)c3ccccc3N2)c1
 : 0.94	-0.91
O=C(NC(=O)C1CCNCC1)c1cc2c(s1)CS(=O)(=O)C2
 : 0.91	-1.7
Cc1ccc2c(c1)c(=O)c(S(=O)(=O)c1ccccc1)cn2CC(=O)Nc1ccccc1
 : 1	1.2
CCc1ccc(C2=NN(CCC(=O)NCCc3ccccc3)C(=O)CC2)cc1
 : 0.97	-0.49
Fc1cccc(Cl)c1Cc1noc(C(c2ccccc2)C2CCCC2)n1 (centres undefined)
 : 1.3	3.2
COCc1nnc(NC(=O)c2ccc(S(=O)(=O)N(CC(C)C)CC(C)C)cc2)o1
 : 0.081*	-1.2*
CC1(C)CC(=O)N(CC(=O)NC2CCCC2)c2ccccc2S1
 : 1	0.12
CCN(c1ccc(C)c(C)c1)S(=O)(=O)c1ccc2c(c1)CCN2C(=O)C1CC1
 : 1	-0.11
O=C(c1ccc(Cl)cc1)c1conc1C(=O)c1cccs1
 : 1.1	1.3
c1ccc(Cc2nc(NCc3cccs3)c3c4c(sc3n2)CCCC4)cc1
 : 1.2	4
COc1ccc(OC)c(NC(=O)c2c(-c3ccccc3Cl)noc2C)c1
 : 1	0.73
O=C(NCc1ccccc1Cl)c1ccc2c(c1)NC(=O)c1ccccc1S2(=O)=O
 : 0.94	-2.5

Ordered by molar mass (descending): 3 of the compounds above.
Values in the order: CBX7 AlphaScr	CBX7 AlphaScr z-score
O=C(NCc1ccccc1Cl)c1ccc2c(c1)NC(=O)c1ccccc1S2(=O)=O
 : 0.94	-2.5
c1ccc(Cc2nc(NCc3cccs3)c3c4c(sc3n2)CCCC4)cc1
 : 1.2	4
CCS(=O)(=O)N1CCCC(C(=O)NC(C)C)C1 (centres undefined)
 : 1	0.1

Going on with the list:
Values in the order: CBX7 AlphaScr	CBX7 AlphaScr z-score
CC(=O)N1CCc2cc(S(=O)(=O)NC(Cc3ccccc3)C(=O)Nc3cc(C)ccn3)ccc21 (centres undefined)
 : 0.98	-0.76
COc1ccc(-c2nnc(NC(=O)c3ccc(S(=O)(=O)N4CCCCC4C)cc3)o2)cc1 (centres undefined)
 : 0.71	-6.6
CCCc1cc(-c2[nH]ncc2-c2ccc3c(c2)OCCCO3)c(O)cc1OC
 : 0.47*	-0.93*
CC1CCCN(S(=O)(=O)c2ccc3[nH]c(=O)cc(C(=O)NCCC4=CCCCC4)c3c2)C1 (centres undefined)
 : 0.8	-2.7
O=C(NCc1ccc(Cl)cc1)c1cc2c(s1)CSC2
 : 1.1	1.1
CC(NC(=O)C1CC(=O)N(c2ccc(Br)cc2)C1)c1ccccc1 (centres undefined)
 : 0.94	-1.4
CCC(C)NC(=O)C1CCN(c2cc(C)nc3c(-c4ccc(Cl)cc4)c(C)nn23)CC1 (centres undefined)
 : 1.1	0.24
COc1ccc(OC)c(CNC(=O)c2cc(-c3ccc(Br)s3)nc3ccccc23)c1
 : 1.1	2.6
COc1ccc(N2C(=O)N(c3ccccc3Cl)C3CS(=O)(=O)CC32)cc1 (centres undefined)
 : 1.1	1.5
CCOC(=O)C1=C(C)NC(=O)NC1c1ccc(OCC(=O)N2CCCCC2)cc1 (centres undefined)
 : 0.87	-1.6
COc1ccccc1-c1c(C)nn2c(NCCc3ccccc3)cc(C)nc12
 : 0.99	-0.07
CC(C)NC(=O)c1ccccc1-c1nc2ccccc2[nH]1
 : 1.2	0.32
O=C(CN1C(=O)CCSc2ccccc21)N1CCC(Cc2ccccc2)CC1
 : 1	0.71
CC(=O)N1CCc2cc(S(=O)(=O)NC(C(=O)NCC3COc4ccccc4O3)C(C)C)ccc21 (centres undefined)
 : 1	1.4
O=C1CC(c2cccc(OCc3ccccc3)c2)c2cc3c(cc2N1)OCCO3 (centres undefined)
 : 0.73	-2.1
NC(=O)C1CCN(C(=O)C2CCCN(C(=O)c3cnn(-c4ccccc4)c3-n3cccc3)C2)CC1 (centres undefined)
 : 1.3	1.9
Clc1cccc(Cc2cn3cc(-c4ccccc4)nc3s2)c1
 : 1.1	1
Cc1cccc(OCCn2c(=N)n(CC(N)=O)c3ccccc32)c1
 : 1	0.11
Cc1[nH]c2ccccc2c1CCNC(=O)CCCNS(=O)(=O)c1ccccc1
 : 1.2	0.36
CCOC(=O)C1CCCN(c2c(NCCC3=CCCCC3)c(=O)c2=O)C1 (centres undefined)
 : 1.1	1.2
CC1CCc2c(C(=O)NCCCN(Cc3ccccc3)C(C)C)csc2C1 (centres undefined)
 : 0.98	-0.75
Cc1cccn2c(NC3CCCCC3)c(-c3cccnc3)nc12
 : 1	0.052
Cc1nc2ccccc2n1CC(O)COc1ccc(C2C=CCC2)cc1 (centres undefined)
 : 0.66	-3.3
CCOc1ccc(N(CC(=O)Nc2ccc(OC)cc2)S(=O)(=O)c2cccnc2)cc1
 : 0.95	-0.33
CC(Oc1ccccc1F)C(=O)Nc1c(C(=O)c2ccccc2)oc2ccccc12 (centres undefined)
 : 1.2	3.1
CCOc1ccccc1Nc1nc(-c2sc(NC(=O)CC)nc2C)cs1
 : 1	0.3
O=C(c1cccc(NC2=NC3CS(=O)(=O)CC3S2)c1)N1CCc2ccccc2C1 (centres undefined)
 : 1	0.57
Cc1ccc(N2CCN(c3cc(C)nc4ncnn34)CC2C)cc1 (centres undefined)
 : 0.96	-0.87
CCc1nc2ccccc2n1CC(O)COc1ccccc1Cl (centres undefined)
 : 0.92	-2
Cc1cccc(NC(=O)c2cc(S(=O)(=O)N3CCOCC3)ccc2F)c1C
 : 1	0.42
O=C(O)C1CCN(C(=O)c2cc3sccc3n2Cc2ccc(F)cc2)CC1
 : 1.1	0.42
Cc1noc(C)c1S(=O)(=O)N1CCCC(C(=O)Nc2ccccc2F)C1 (centres undefined)
 : 1	0.19
O=S(=O)(c1ccc(-c2csc(-c3cccnc3)n2)cc1)N1CCCCC1
 : 1.2	3.3
CCOC(=O)N1CCC(NC(=O)c2ccc3nc(N4CCC(C)CC4)sc3c2)CC1
 : 0.95	-1
Cc1onc(-c2c(Cl)cccc2Cl)c1C(=O)N1CCN(C)CC1
 : 1	0.023
CCCc1nc2ccccc2c(NC(=O)CN2CCCCCC2)c1CC
 : 0.91	-1.4
Cc1cc(NC(=O)c2c(-c3ccccc3)noc2C)no1
 : 1.1	2.5
CCN1CCCC1CNC(=O)C1CNc2cc(C)ccc2O1 (centres undefined)
 : 1.5	1
Cc1cc(N2CC(C)CC(C)C2)nc2ccc(NC(=O)CCC(=O)N3CCC4(CC3)OCCO4)cc12 (centres undefined)
 : 1.1	2
Cc1cccc2c1-c1sc(C(=O)N3CCN(c4ccccn4)CC3)cc1CO2
 : 1	0.58

Shown with bars between the fields: part of the list above.
SMILES | CBX7 AlphaScr | CBX7 AlphaScr z-score
Cc1[nH]c2ccccc2c1CCNC(=O)CCCNS(=O)(=O)c1ccccc1 | 1.2 | 0.36
CCOC(=O)C1CCCN(c2c(NCCC3=CCCCC3)c(=O)c2=O)C1 (centres undefined) | 1.1 | 1.2
CC1CCc2c(C(=O)NCCCN(Cc3ccccc3)C(C)C)csc2C1 (centres undefined) | 0.98 | -0.75
Cc1cccn2c(NC3CCCCC3)c(-c3cccnc3)nc12 | 1 | 0.052
Cc1nc2ccccc2n1CC(O)COc1ccc(C2C=CCC2)cc1 (centres undefined) | 0.66 | -3.3
CCOc1ccc(N(CC(=O)Nc2ccc(OC)cc2)S(=O)(=O)c2cccnc2)cc1 | 0.95 | -0.33
CC(Oc1ccccc1F)C(=O)Nc1c(C(=O)c2ccccc2)oc2ccccc12 (centres undefined) | 1.2 | 3.1
CCOc1ccccc1Nc1nc(-c2sc(NC(=O)CC)nc2C)cs1 | 1 | 0.3
O=C(c1cccc(NC2=NC3CS(=O)(=O)CC3S2)c1)N1CCc2ccccc2C1 (centres undefined) | 1 | 0.57
Cc1ccc(N2CCN(c3cc(C)nc4ncnn34)CC2C)cc1 (centres undefined) | 0.96 | -0.87
CCc1nc2ccccc2n1CC(O)COc1ccccc1Cl (centres undefined) | 0.92 | -2
Cc1cccc(NC(=O)c2cc(S(=O)(=O)N3CCOCC3)ccc2F)c1C | 1 | 0.42
O=C(O)C1CCN(C(=O)c2cc3sccc3n2Cc2ccc(F)cc2)CC1 | 1.1 | 0.42
Cc1noc(C)c1S(=O)(=O)N1CCCC(C(=O)Nc2ccccc2F)C1 (centres undefined) | 1 | 0.19
O=S(=O)(c1ccc(-c2csc(-c3cccnc3)n2)cc1)N1CCCCC1 | 1.2 | 3.3
CCOC(=O)N1CCC(NC(=O)c2ccc3nc(N4CCC(C)CC4)sc3c2)CC1 | 0.95 | -1
Cc1onc(-c2c(Cl)cccc2Cl)c1C(=O)N1CCN(C)CC1 | 1 | 0.023
CCCc1nc2ccccc2c(NC(=O)CN2CCCCCC2)c1CC | 0.91 | -1.4
Cc1cc(NC(=O)c2c(-c3ccccc3)noc2C)no1 | 1.1 | 2.5
CCN1CCCC1CNC(=O)C1CNc2cc(C)ccc2O1 (centres undefined) | 1.5 | 1
Cc1cc(N2CC(C)CC(C)C2)nc2ccc(NC(=O)CCC(=O)N3CCC4(CC3)OCCO4)cc12 (centres undefined) | 1.1 | 2
Cc1cccc2c1-c1sc(C(=O)N3CCN(c4ccccn4)CC3)cc1CO2 | 1 | 0.58

Next records:
Values in the order: CBX7 AlphaScr	CBX7 AlphaScr z-score
CC(=O)N1CCc2cc(S(=O)(=O)NC(C(=O)Nc3ccc(C)cc3C)C(C)C)ccc21 (centres undefined)
 : 1	1.9
Cc1ccc2c(c1)c(-c1ccccc1)c(-c1ccccc1)n2CC(O)CN1CCN(CCO)CC1 (centres undefined)
 : 0.83	-3.6
Cc1ccccc1-n1nc2c(c1NC(=O)c1ccc(S(=O)(=O)N(C)C)cc1)CSC2
 : 1	0.25
COc1ccccc1CNC(=O)c1cc2ccccn2n1
 : 1.2	1.2
Cc1noc(/C=C/c2cccs2)c1S(=O)(=O)N1CCCC(C(=O)N2CCCCCC2)C1 (centres undefined)
 : 0.91	-1.6
CCN(c1ccccc1)S(=O)(=O)c1ccc2c(c1)CCC(=O)N2
 : 0.93	-1.7
COc1ccc(Cl)cc1C(=O)Nc1ccc2oc(-c3ccc(F)cc3)nc2c1
 : 0.95	-0.11
O=C(Nc1ccc2oc(-c3ccc(Cl)cc3Cl)nc2c1)c1ccc(Cl)cc1
 : 1	0.4

Some of the compounds tested; rates above refer to the full screens.
